Screening results from PubChem BioAssay.
HCMV UL50-53 inh: inhibitors of HCMV UL50-UL53 interaction, biochemical, HTRF | hit rate 0.15% among 190,000 | inhibition, % (no concentration beside the values) | HCMV UL50-UL53 nuclear egress complex (human cytomegalovirus) | AID 1918969, 2023 | normalized percent inhibition;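 active = both replicates at 50% or more, plus weaker picks with an unusually low signal ratio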;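 also: stock transfer was 100 nL into about 20 µL; 0% = negative control wells and 100% = wells with untagged competitor protein; inactives centre near -12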
Sa growth 42C: S. aureus growth inhibition at 42 and 30 °C, primary screen, LtaS inhibitor project, RN4220, two temperatures | OD600, 20 h, 42 °C; active compounds read low | relative growth, % (no concentration beside the values) | hit rate 0.53% among 170,000 | AID 720641, 2013;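 active = growth at 42 °C up to 50% and 20 or more points under that at 30 °C, or under 10% at both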;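 also: 300 nL library stock went into each well; scaled to the means of positive and negative controls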
GIV Gai3 FP: inhibitors of GIV peptide binding to Galpha-i3, primary screen, biochemical, fluorescence polarization, FITC-GIV GBA peptide, rat Galphai3. percent of control (FP), % (concentration not given with the values). hit rate 0.42% among 210,000. 90 min; active compounds read low; scaled: aluminum fluoride 0%, vehicle 100%. Guanine nucleotide-binding protein G(i) subunit alpha-3 (Rattus norvegicus), P08753;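 active = replicate mean at 85% of control or lower, very high polarization wells dropped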;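 also: wells of about 15 µL received 100 nL stock; the first replicate is given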
Target sequence (P08753 whole entry, looked up): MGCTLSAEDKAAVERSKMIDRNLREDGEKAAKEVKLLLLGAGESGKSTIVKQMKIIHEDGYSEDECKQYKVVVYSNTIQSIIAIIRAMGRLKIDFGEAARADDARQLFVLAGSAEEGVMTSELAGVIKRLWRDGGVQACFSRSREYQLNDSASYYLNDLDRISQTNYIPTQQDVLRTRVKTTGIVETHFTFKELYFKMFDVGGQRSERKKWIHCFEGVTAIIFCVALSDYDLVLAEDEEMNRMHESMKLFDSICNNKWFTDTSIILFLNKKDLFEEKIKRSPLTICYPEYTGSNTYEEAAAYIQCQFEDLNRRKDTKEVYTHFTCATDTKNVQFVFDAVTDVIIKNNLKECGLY
Sa growth 42C second temp: further read-out of Sa growth 42C, marked with its call; relative growth, %; measured here: growth at 30 °C;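 optical density after 20 h as mean of two plates; 100% = untreated growth and lower means inhibition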
* = called active by the depositor; . = not tested or not shown; & = joins results of further samples.

SMILES	HCMV UL50-53 inh	Sa growth 42C	Sa growth 42C second temp	GIV Gai3 FP
O=C(COc1ccc(F)cc1)NC1CC(=O)N(c2ccc3c(c2)OCCO3)C1 (stereo unspecified)	.	95	87	102&102
CCCCCCCc1c(COC)[nH]c(=S)[nH]c1=O	-19	97	77	106
O=C(OC1CCCCC1)c1c(F)c(F)c(F)c(F)c1F	-3	106	96	105
CCOC(=O)C1CCCN(CC(O)COc2ccc3ccccc3c2)C1 (stereo unspecified)	-19	100	94	102
O=c1c(Cc2ccc(Br)cc2)csc2ccccc12	-24	88	91	105
CCN(CC)c1ccc2cc(-c3nnc(-c4ccc([N+](=O)[O-])cc4)o3)c(=O)oc2c1	-12	.	.	115
CCOc1ccc(NC(=O)c2oc3cc(C)ccc3c2C)c2cccnc12	-3	.	.	101
CCCCCn1cc2c(c1-c1ccc(Cl)cc1)c(=O)n(C)c(=O)n2C	8	111	90	98
CCOC(=O)c1c(NC(=O)C(C)OC(=O)c2ccc(-n3cnnn3)cc2)sc2c1CCCC2 (stereo unspecified)	-33	73	77	.
CC1CCN(c2nc3ccc(C(=O)NC(C)C)cc3s2)CC1	-13	102	87	99
CCC(C)c1ccc(O)c(NC(=O)c2cccnc2)c1 (stereo unspecified)	.	112	74	106
COc1ccc(N(Cc2nc3nc(C)cc(=O)n3[nH]2)S(=O)(=O)c2ccc(Cl)cc2)cc1	6	.	.	103
O=C(COc1cccc(-c2nc(-c3ccccc3)no2)c1)Nc1nccs1	-12	.	.	106
COc1ccc(CNC(CO)c2ccccc2)c(OC)c1OC (stereo unspecified)	-2	116	105	105
Cc1cc(C)c(S(=O)(=O)N2CCN(CCO)CC2)c(C)c1	-10	100	88	105

Reformatted in CSV form: 2 of the compounds above.
canonical_smiles,HCMV UL50-53 inh,Sa growth 42C,Sa growth 42C second temp,GIV Gai3 FP
O=C(COc1cccc(-c2nc(-c3ccccc3)no2)c1)Nc1nccs1,-12,.,.,106
COc1ccc(CNC(CO)c2ccccc2)c(OC)c1OC (stereo unspecified),-2,116,105,105

Remaining list, next part:
SMILES	HCMV UL50-53 inh	Sa growth 42C	Sa growth 42C second temp	GIV Gai3 FP
Cc1ccc(NC(=O)CN2CCN(Cc3ccc4c(c3)OCO4)CC2)cc1	-4	.	.	99
Cc1cc(C(F)(F)F)nc(SCC(=O)Nc2c(C)n(C)n(-c3ccccc3)c2=O)n1	11	86	89	108
CSc1nc(-c2ccco2)nn1C(=O)c1ccc(Cl)cc1	-20	94	84	110
Cc1cc(=O)n2[nH]c(-c3ccc(C(C)(C)C)cc3)cc2n1	8	117	102	108
COc1ccc(C)cc1NC(=O)C(=O)NCCc1csc2nc(-c3ccccc3F)nn12	.	84	89	103
CCc1noc(-c2ccc(OCC(=O)Nc3nnc(C(C)C)s3)cc2)n1	-29	.	.	107
Cc1ccc(-n2ncc3c(NCCCc4ccccc4)ncnc32)cc1	.	102	94	103
Cc1cc(OCc2nc(C)c(C(=O)NC3CC3)s2)ccc1Cl	-10	.	.	107
CC1CCN(CCNC(=O)c2nn(C)c3c2CS(=O)(=O)c2ccccc2-3)CC1	-36	.	.	95
CCOC(=O)c1ccccc1NC(=O)Cc1c(C(=O)O)c(C)cn1C	.	85	99	101&101
Cc1cc(NCCCN(C)C)n2nc(C(F)(F)F)c(-c3ccc(Cl)cc3)c2n1	-2	.	.	98
CCc1ccc(OCC2c3cc(OC)c(OC)cc3CCN2C(=O)c2ccc(S(=O)(=O)N3CCCC3)cc2)cc1 (stereo unspecified)	.	108	87	99
O=C(NC1CCCC1)C(c1ccccc1)N(Cc1ccc2c(c1)OCO2)C(=O)c1ccco1 (stereo unspecified)	-32	94	97	105
Cc1ccc(NC(=O)Nc2nnc(SCc3cc(=O)n4oc(C)cc4n3)s2)c(Cl)c1	-9	.	.	117
COc1ccc(NC(=O)[C@H](CCS(C)(=O)=O)N2Cc3ccccc3C2=O)cc1Cl	.	99	85	102

3 entries already listed, ordered by length of the SMILES, smallest number first:
SMILES	HCMV UL50-53 inh	Sa growth 42C	Sa growth 42C second temp	GIV Gai3 FP
CSc1nc(-c2ccco2)nn1C(=O)c1ccc(Cl)cc1	-20	94	84	110
CC1CCN(CCNC(=O)c2nn(C)c3c2CS(=O)(=O)c2ccccc2-3)CC1	-36	.	.	95
Cc1cc(C(F)(F)F)nc(SCC(=O)Nc2c(C)n(C)n(-c3ccccc3)c2=O)n1	11	86	89	108

The results go on.
SMILES	HCMV UL50-53 inh	Sa growth 42C	Sa growth 42C second temp	GIV Gai3 FP
Cc1ccc(CN(C)CC(=O)Nc2ccc3c(c2)OCCCO3)cc1	-22	95	94	.
CCc1ccc(Nc2n[nH]c(=S)s2)cc1	-8	82	37	109
CCC(=O)N(C)/C=C1\Sc2ccccc2C1=O	-52	.	.	104
CCOC(=O)c1noc2ncnc(Nc3ccc(OC)cc3OC)c12	-4	.	.	112
CC(C)COc1cccc(C(=O)Nc2ccc(-c3nc4ncccc4o3)cc2)c1	-24	101	89	101
O=S(=O)(Nc1ccc(-c2ccc(N3CCCCCC3)nn2)cc1)c1cccc(C(F)(F)F)c1	.	124	106	109
CCc1ccc(NC(=O)NCCn2c(-c3ccc(F)cc3)nc3ccccc32)cc1	5	.	.	102
CCN1/C(=C2\C(=O)N=C(C)N2c2ccccc2)C=Cc2ccc(C)cc21	.	81	87	99
CCCOC(=O)C(C)Oc1ccc2c(=O)c(-c3ccccc3Cl)coc2c1 (stereo unspecified)	.	115	94	103
COc1ccc(CNC(=O)Cc2csc(N3CCCC3=O)n2)cc1	-3	84	84	.
CCCCC1SC(=Nc2ccccc2)N(S(=O)(=O)c2ccc(C)cc2)C1=O (stereo unspecified)	-13	.	.	105
Cc1ccc(-c2n[nH]c(=O)c3ccccc23)cc1S(=O)(=O)NC(C)C	0	.	.	108
O=C(c1ccccc1)c1cn(Cc2ccccc2)c2ccccc2c1=O	.	71	84	105
Cc1ccc2oc3c(c(=O)c2c1)C(c1ccc(F)cc1)N(Cc1ccc2c(c1)OCO2)C3=O (stereo unspecified)	-8	88	89	98
CCOc1ccc(Nc2nc(O)c(C3=c4cc(Br)ccc4=NC3=O)s2)cc1	-20	.	.	103
COc1ccc(C2=C/C(=C/c3ccc4c(c3)OCO4)C(=O)O2)cc1	-14	92	92	102
C#CCn1c(-c2nonc2N)nc2ccccc21	-4	115	113	108
O=C(c1cnoc1)c1cc(Cl)cc(Cl)c1O	-11	77	16	.
NC(=O)c1ccc(N2CCCCC2)c(N)c1	-14	116	96	105
COc1ccccc1CNC(=O)C1CCN(c2nn3c(=O)cc(C)nc3s2)CC1	-11	99	86	104
Cc1ccc(S(=O)(=O)N2CCC(CN3C(=O)c4cccc5cccc(c45)C3=O)CC2)cc1	-36	.	.	99
O=C(CSc1nc(-c2ccc3c(c2)OCO3)nc2cc(=O)[nH]n12)NCCc1nc2ccccc2[nH]1	-53	98	78	102
Cc1cccc(-c2nc3c4ccccc4nc(NCc4ccc(Cl)cc4)n3n2)c1	-6	93	89	102
COC(=O)c1ccccc1Sc1nc2ccc(Cl)cc2s1	-8	106	72	99
Cc1nc2cc(NS(=O)(=O)c3ccc(Oc4ccccc4)cc3)ccc2s1	.	86	91	99
COC(=O)c1ccc(C2N(Cc3ccc(F)cc3)CCCN2Cc2ccc(F)cc2)cc1	.	96	97	101
Cc1[nH]c2ccccc2c1Cc1nnc(SCC(N)=O)n1Cc1ccco1	-12	92	70	103
CCOC(=O)c1c(NC(=O)CS(=O)(=O)c2ccc(C)cc2)sc2c1CCC(C)C2 (stereo unspecified)	.	117	89	102&109
CC1=C(C(=O)Nc2ccccc2)C(c2ccc(OCc3ccccc3)cc2)n2nnnc2N1 (stereo unspecified)	-31	.	.	109
CCCCn1c(SCC(=O)N2c3ccccc3Sc3ccccc32)nc2c1c(=O)n(C)c(=O)n2C	-7	82	64	102

Part of the list above, with two lines to a compound:
Every second line gives: HCMV UL50-53 inh, Sa growth 42C, Sa growth 42C second temp, GIV Gai3 FP
> COc1ccccc1CNC(=O)C1CCN(c2nn3c(=O)cc(C)nc3s2)CC1
→ -11, 99, 86, 104
> Cc1ccc(S(=O)(=O)N2CCC(CN3C(=O)c4cccc5cccc(c45)C3=O)CC2)cc1
→ -36, ., ., 99

(cont.)
SMILES	HCMV UL50-53 inh	Sa growth 42C	Sa growth 42C second temp	GIV Gai3 FP
CCCNC(=O)CN1CCn2nc(-c3ccccc3)cc2C1=O	-1	.	.	101
Cc1oc2ccc(O)c(CN3CCCCC3)c2c1C(=O)NCc1ccccc1	0&4	103	89	102&106
CCCCN(C)C(=O)Cn1nc(CC)n2c(cc3sccc32)c1=O	-30	101	85	100
CC1=CC(=O)C(N2CCN(C(c3ccccc3)c3ccccc3)CC2)=CC1=O	-27	63	60	.
O=C(Nc1ccc(F)c(Cl)c1)C1CCCN(c2cnccn2)C1 (stereo unspecified)	-21	101	92	96
Cc1c(-c2ccccc2)sc(NC(=O)C2CC(=O)N(Cc3ccco3)C2)c1C(=O)N1CCOCC1 (stereo unspecified)	3	100	111	.
Cc1nc(C)c(-c2nc(-c3ccc4c(c3)nc(C)c(=O)n4C3CCCC3)no2)s1	-22	.	.	140
CSCCC(NS(=O)(=O)c1ccc2c(c1)oc(=O)n2C)C(=O)NCc1ccc(Cl)cc1 (stereo unspecified)	.	123	93	98
C=CCOc1ccccc1/C=C1/SC(N2CCN(C)CC2)=NC1=O	-49	120	82	109
Cn1cccc1C(=S)N=P(N1CCOCC1)(N1CCOCC1)C(C)(C)C	-35	103	90	.
CC1CCN(S(=O)(=O)c2ccc3c(c2)c(=O)c(C(=O)N2CCN(c4cccc(Cl)c4)CC2)cn3C)CC1	-33	103	86	103
CSC1=C(C#N)C(c2ccc(C(C)C)cc2)C2=C(CCCC2=O)N1 (stereo unspecified)	-36	91	82	99
C=CCNC(=O)COc1ccc(C)cc1	-11	102	76	97
Cc1ccc(C2=NN(C(=O)COc3cccc(-n4cnnn4)c3)C(c3ccco3)C2)cc1 (stereo unspecified)	-25	84	82	.
CCOC(=O)c1sc2nc(C)n(CC(=O)Nc3ccc(OCC)cc3)c(=O)c2c1C	5	.	.	113
CCn1c(=O)n(CC)c2cc(NC(=O)CN3C(=O)c4ccccc4S3(=O)=O)ccc21	15	.	.	100
CCCCc1ccc(-n2nc3ccc(NC(=O)c4cc5ccccc5o4)cc3n2)cc1	-51	99	96	107
O=c1cc(N2CCc3ccccc3C2)[nH]c(=O)n1Cc1ccc(F)cc1	.	75	89	99
COC(=O)Cn1c(=O)c(=O)n(C)c2cccnc21	-27	.	.	102
COC(=O)C1=C(C)NC(C)=C(C(=O)OC)C1c1ccc(-c2ccccc2C(F)(F)F)o1	-3	113	83	100
Cc1occc1-c1nnc(SCC(=O)NC(C)C)o1	6	.	.	103
N#C/C(=C(/O)CSc1nnc(N)s1)c1nc2ccccc2s1	-21	86	74	.
O=C(Cc1ncon1)Nc1ccc(F)cc1F	.	100	90	105
CSc1nc2c(c(=O)n1Cc1ccccc1)SC(C)C2 (stereo unspecified)	-27	88	66	106
N#CC1=C(S)N(c2ccccc2)C(c2ccc(-c3cccc(Cl)c3)o2)NC1=O (stereo unspecified)	-50	71	32	.
O=C(O)C1CC(c2ccccc2)=C(c2ccccc2)CC1C(=O)c1ccccc1 (stereo unspecified)	.	50	25	99
CCn1c(=O)c(=O)[nH]c2cc(C(=O)NCC(c3ccc(OC)cc3)N(C)C)ccc21 (stereo unspecified)	-7	99	96	.
CCC(=O)N1CCc2cc(S(=O)(=O)NC(CC(C)C)C(=O)NCc3cccc(OC)c3)ccc21 (stereo unspecified)	-10	98	85	103
Cn1c2ccccc2c2cc(C3Nc4ccccc4C(=O)N3O)ccc21 (stereo unspecified)	.	49	49	108
O=C(Cn1ccc(=O)[nH]c1=O)OCc1c(Cl)cccc1Cl	-30	80	80	.
COc1ccc(CCNC(=O)CCn2c(=O)c3cccn3c3cccnc32)c(OC)c1OC	.	109	82	100
O=C(Nc1nnc(-c2ccccc2)o1)C(c1ccccc1)c1ccccc1	2	97	99	108
